High-throughput results from PubChem.
NS1 function inh = inhibitors of influenza NS1 protein function; actives 0.4% (n = 270,000); AID 2326; Potency, µM (doses to about 46.1 µM), for the others: top-dose activity, positive = more growth; S. cerevisiae slowed by influenza A NS1, growth recovery by OD600; active means well fitted rising curve with a large enough effect; inconclusive means small, poorly fitted or top-dose-only effect; inactive means no such curve, though single readings can be large or run the other way; also: nearly all actives have a fitted effect of over 50% in size
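Growth recovery, yeast-based: influenza A NS1 expressed in S. cerevisiae causes slow growth, and suppressors are detected by OD600. The parent strain without NS1 is used as positive control.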
MARV entry inh = inhibitors of Marburg virus binding or cell entry. Marburg virus pseudotyped entry inhibition, cell reporter; control for the full effect not named in the record; about a third of the inactives were read at about 46 µM. AID 540276. Potency, µM (highest dose often 37.8 µM), inactives show at the highest dose activity change, negative = inhibition, hits mostly inhibitors. actives 1.8% (n = 300,000); active = well fitted inhibition curve with a large enough effect; inconclusive = small, poorly fitted or top-dose-only effect, or effect the other way; inactive = flat fitted curve, though single readings scatter; tested in HEK293 cells; about a fifth of its hits are not listed in these tables; also: % is scaled to controls: 0 for no effect and ±100 for the full control effect; luciferase read-out
SARS PLP yeast = SARS-CoV PLP inhibition in yeast | S. cerevisiae expressing SARS-CoV PLpro, growth rescue; control for the full effect not named in the record | AID 485353 | actives 0.19% (n = 330,000) | Potency, µM (titrated, usually from 32.9 µM), inactives show at the top dose activity, positive = growth rescue; active means well fitted rising curve with a large enough effect; inconclusive means small, poorly fitted or top-dose-only effect; inactive means no such curve, though single readings can be large or run the other way; also: 0% is about no effect; nearly all actives have a fitted effect of over 55% in size; growth read by luminescence after 48 h
Cruzain inh noDet = blocks cruzain activity in detergent-free assay; Potency, µM, without a hit: max response, negative = inhibition, usual class: inhibitors; actives 2.3% (n = 200,000); AID 1476; P25779; purified cruzain, Z-FR-AMC fluorescence, no detergent;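 also: plate controls were enzyme without inhibitor for no effect and buffer without enzyme for full effect; nearly all actives have a fitted effect of over 40% in size; top concentration of the series not given in the record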
Target sequence (P25779 123-467 limits assumed): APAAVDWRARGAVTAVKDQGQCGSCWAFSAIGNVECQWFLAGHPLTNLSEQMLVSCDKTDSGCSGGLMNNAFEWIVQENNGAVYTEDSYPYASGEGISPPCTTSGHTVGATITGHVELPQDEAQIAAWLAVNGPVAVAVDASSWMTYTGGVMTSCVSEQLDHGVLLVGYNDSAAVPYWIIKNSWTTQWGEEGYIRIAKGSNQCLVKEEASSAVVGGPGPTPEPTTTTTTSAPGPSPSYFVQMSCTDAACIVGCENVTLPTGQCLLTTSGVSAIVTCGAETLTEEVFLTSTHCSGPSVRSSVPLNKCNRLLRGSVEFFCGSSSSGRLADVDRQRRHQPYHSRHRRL
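Detergent-free condition (0.00005% Triton X-100) in acetate buffer pH 5.5 with DTT. 1.5 nM enzyme and compound were pre-mixed 15 min, then 2 uM Z-FR-AMC substrate added; reaction progress from fluorescence change between first and third reads (60 s).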
Cruzain inh Det = blocks cruzain activity in presence of Triton detergent; P25779; purified cruzain, Z-FR-AMC fluorescence, 0.01% Triton; Potency, µM, inactives show max response, negative = inhibition, most hits filed as inhibitors; actives 0.43% (n = 200,000); AID 1478;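 also: plate controls were neutral wells for no effect and buffer without enzyme for full effect; nearly all actives have a fitted effect of over 40% in size; top concentration of the series not given in the record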
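Cruzain (1.5 nM) preincubated 15 min at RT with compound in 100 mM sodium acetate pH 5.5, 5 mM DTT, 0.01% Triton X-100. Reaction started with 2 uM Z-FR-AMC; AMC fluorescence (ex 360/em 450 nm) change over 60 s gave rate.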
Lassa entry inh = blocks Lassa virus binding to or entry into cells | Lassa virus pseudotype entry inhibition, cell reporter; control for the full effect not named in the record | Potency, µM (titrated, usually from 37.9 µM), inactives show at the highest dose activity change, negative = inhibition, usual class: inhibitors | actives 1.2% (n = 300,000); active means well fitted inhibition curve with a large enough effect; inconclusive means small, poorly fitted or top-dose-only effect, or effect the other way; inactive means flat fitted curve, though single readings scatter; tested in HEK293 cells; also: % is scaled to controls: 0 for no effect and ±100 for the full control effect; nearly all actives have a fitted effect of over 50% in size; luciferase read-out
2A StopGo = FMDV 2A StopGo reporter, luciferase signal; AID 1159524; Potency, µM (highest dose often 57.9 µM), inactives show at the highest dose signal change, negative = less light; human cells with a luciferase reporter of 2A StopGo recoding; control for the full effect not named in the record; actives 1.2% (n = 410,000); active = well fitted falling curve with a large enough effect; inconclusive = small, poorly fitted or top-dose-only effect; inactive = no such curve, though single readings can be large or run the other way; tested in HEK293T cells; also: % is scaled to controls: 0 for no effect and ±100 for the full control effect; nearly all actives have a fitted effect of over 45% in size; luciferase light after 4 h
RE007 growth inh = less growth of the S. pombe RE007 Vpr strain; S. pombe RE007 Vpr strain, BacTiter-Glo ATP luminescence, 24 h; control for the full effect not named in the record; Potency, µM (titrated, usually from 92.2 µM), for the others: top-dose activity change, negative = less growth; actives 0.21% (n = 360,000); AID 651644; active = well fitted falling curve with a large enough effect; inconclusive = small, poorly fitted or top-dose-only effect; inactive = no such curve, though single readings can be large or run the other way;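 also: % is scaled to controls: 0 for no effect and ±100 for the full control effect; nearly all actives have a fitted effect of over 50% in size; the assay follows cell death caused by Vpr and the record does not say whether a fall means rescue or toxicity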
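Fission yeast RE007 carrying one integrated HIV-1 vpr copy, seeded at OD 0.01 in PMG+AL medium with 23 nL pinned compound. Grown 24 h at 30 degrees; viability read by BacTiter-Glo luminescence after 5 min.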
An asterisk follows results filed as active; ? = inconclusive; . = not tested or not shown; & = joins results of further samples; [ ] = another dose, or the depositor's remark. Unless noted, calls follow the shape of the dose curve; as a rule, active = well fitted curve in the direction sought with a large enough effect; inconclusive = small, poorly fitted or top-dose-only effect, or another doubt; inactive = no such curve, though single readings can be large; an effect the other way counts as inactive or inconclusive. Potency is read from the fitted curve at half-maximal effect.

molecule	NS1 function inh	MARV entry inh	SARS PLP yeast	Cruzain inh noDet	Cruzain inh Det	Lassa entry inh	2A StopGo	RE007 growth inh
COc1ccc(/C(C)=N/Nc2cc(C(F)(F)F)ccc2Cl)c(OC)c1	-3%	-17%	-26%	-8%	-1.0%	-19%	.	.
Cc1c(Cl)ccc2c(C(=O)NCCCn3nccc3C)cc(-c3ccccn3)nc12	8%	-21%	24%	.	.	-17%	6%	4%
Cc1ccc(CNC(=O)C2CCC(=O)N(C3CC3)C2)cc1 (stereo unspecified)	2%	1%[46.1 µM]	-2%	.	.	5%[46.1 µM]	9%	1%
CCCN(CCC)CCNC(=O)c1cc2c(-c3ccccc3F)nn(C)c2s1	-4%	?	-2%	-5%	-5.2%	?	?	-14%
Cc1ccccc1Nc1nc(N)nc(CCl)n1	1%	?	0%	.	.	?	11%	5%
O=C(O)CCCCCN1C(=O)CSC1=S	-9%	?	-8%	-8%	1.6%	?	0%	-6%
CCn1c(C)c(C(C)=O)c(N2CCN(c3ccccc3)CC2)nc1=S	2%	-5%	-5%	-6%	-8.7%	2%	-8%	3%
CCc1nn(C)c2c(=O)c(=O)c2n(C)[nH]1	-2%	?	2%	.	.	16%	-7%	-21%
CC(NC(=O)c1cccs1)C(c1cccs1)N1CCOCC1 (stereo unspecified)	2%	3%	-12%	-23%	2.7%	20%	.	2%
Cc1ccc(S(=O)(=O)N2CC=C(c3c(C)n(CC(=O)N4CCCC4)c4ccccc34)CC2)cc1C	.	?	.	?	-5.1%	-19%[46.1 µM]	-10%	.
O=C(Nc1ccccc1-c1nnc(SCc2ccc(Cl)cc2Cl)o1)c1ccccc1	12%	5%	-9%	?	-2.1%	-13%	-16%	8%
Nn1cnc2cc3ccccc3cc2c1=O	-1%	.	18%	.	.	.	10%	-9%
COC(=O)c1ccc(CN2CCN(C3CCCCC3)C(CCO)C2)cc1 (stereo unspecified)	1%	-14%[46.1 µM]	-1%	.	.	13%[46.1 µM]	-21%	-4%
Cc1c(CN2CCCCC2C)c(=O)n(-c2ccccc2)n1C (stereo unspecified)	1%	2%	3%	1%	-1.0%	26%[14.3 µM]	14%	-1%
CCn1c(SCC(=O)N(C)CC(=O)Nc2ccc(OC)cc2)nnc1-c1ccco1	.	12%	-7%	.	.	?	5%	-6%
Cc1ccc(CNC(=O)c2oc3ccc(S(=O)(=O)N4CCC5(CC4)OCCO5)cc3c2C)cc1	?	?	-7%	?	9.8%	?	?	21%
N#C/C(=C(/O)COc1ccc(Cl)cc1)c1nc2ccccc2s1	-2%	2%[46.1 µM]	1%	.	.	?	33%[activator]	-7%
CCOC(=O)N1CCC(N(CCCOC)C(=O)Nc2ccc(CC)cc2)CC1	-3%	-25%	2%	23%	2.8%	-5%	.	-15%
O=C(/C=C/c1cccnc1)c1ccc(F)c(F)c1	-11%	7.1µM*	-61%	.	.	12%[46.1 µM]	0%	-55%
CN1C(=O)/C(=C/c2ccccc2OCc2ccc(F)cc2)N(C)C1=S	-3%	-20%	7%	4%	-3.1%	-6%	-26%	-1%
CC1/C(=N/O)CC(c2ccccc2)N(C)C1c1ccccc1 (stereo unspecified)	-17%	10%	-65%	-3%	-2.5%	-26%	-15%	4%
Cc1cccc(NC(=S)N/C(=N/S(=O)(=O)c2ccccc2)c2ccccc2)c1	-6%	13%&-1%	-3%	-12%	3.5%	?	26%&40%	-21%&-6%
COc1ccc(CCNC(=O)C(C)n2nc(C)n3c(cc4occc43)c2=O)cc1OC (stereo unspecified)	-4%	.	10%	.	.	.	-1%	1%
CCCNS(=O)(=O)c1ccc(CCC(=O)N2CCOCC2)cc1	1%	0%	-4%	0%	2.0%	0%	10%	-24%
Cc1cccc(NC(=O)CC(C)S(=O)(=O)c2ccc3c(c2)NC(=O)CO3)c1C (stereo unspecified)	-3%	.	8%	.	.	.	?	2%
CSc1ccc(CCNC(=O)Cn2c(C)c3cnn(-c4ccccc4)c(=O)c3c2C)cc1	.	?	.	-4%	-2.1%	0%[46.1 µM]	-16%	.
CN(CC(=O)Nc1ccccc1C(F)(F)F)C(=O)c1cc2c(s1)CCCCC2	.	?	-5%	.	.	?	-25%	-9%
CCOC(=O)C1CCN(C(=O)NS(=O)(=O)c2ccc(C)cc2)CC1	.	-20%	2%	.	.	-10%[46.1 µM]	-8%	24%
CN(C)S(=O)(=O)c1ccc(N2CCCC2)c(C(=O)N2CCN(c3ccc([N+](=O)[O-])cc3)CC2)c1	.	-4%[46.1 µM]	-1%	.	.	?	-6%	15%
O=C(NCc1ccc(F)cc1)C1CCN(C(=O)c2ccc(-n3ccc4ccccc43)s2)CC1	.	.	.	6%	-6.8%	?	-28%	.
Cc1cccc2c1c(N=NC(N)=S)c(O)n2C1OC(CO)C(O)C(O)C1O (stereo unspecified)	14%	.	-1%	.	.	.	-6%	18%
O=C1C2CCCN2C(c2ccc(Cl)cc2)N1c1nccs1 (stereo unspecified)	3%	5%	-4%	-10%	0.2%	-14%	-14%	-3%
Cc1ccc(S(=O)(=O)N2CCC(C(=O)N/N=C/c3cccn3C)CC2)cc1	.	0%	2%	.	.	3%	-14%	-4%
CCOc1ccc(C(c2c(C)[nH][nH]c2=O)c2c(C)[nH][nH]c2=O)cc1OC	9%	1%	-3%	-1%	1.5%	2%	-5%	7%
Cc1ccc(C)c(N2CCN(C(c3ccccc3)c3nnc(-c4ccccc4F)o3)CC2)c1 (stereo unspecified)	.	-13%[46.1 µM]	.	-22%	-3.5%	-19%[46.1 µM]	-7%	.
COc1ccccc1C1CC(=O)NC(C)=C1C(=O)OC(C)C (stereo unspecified)	-5%	-19%[46.1 µM]	-1%	.	.	.	-8%	-6%
Cn1c(CN2CCN(C(=O)COc3ccccc3)CC2)nc2cc([N+](=O)[O-])ccc21	11%	-1%	14%	-3%	-7.6%	11%	?	-3%
O=C(NNC(=S)NC(=O)c1cccs1)c1ccc(O)cc1	-20%	.	1%	.	.	.	14%	13%
CCOC(=O)c1sc2nc(CC(C)C)c3c(c2c1N)CCC3	6%	-1%	20%	5%	1.7%	-2%	-5%	11%
Cn1nnc2c[n+](CC(=O)c3ccc(Cl)cc3)cc(Br)c21	10%	?	1%	.	.	?	?	-12%

Carrying on.
Below each compound – NS1 function inh | MARV entry inh | SARS PLP yeast | Cruzain inh noDet | Cruzain inh Det | Lassa entry inh | 2A StopGo | RE007 growth inh
> COc1ccccc1NC(=O)C1=C(C)Nc2nc(SCc3ccccc3Cl)nn2C1c1ccccn1 (stereo unspecified)
  . | 9%[46.1 µM] | . | -7% | 1.2% | -13%[46.1 µM] | ? | .
> CC1CCN(CCCNC(=O)C2CC(=O)N(CCc3ccccc3)C2)CC1 (stereo unspecified)
  -3% | . | -1% | . | . | . | -11% | -3%
> O=C(/C=C/N1CCN(Cc2ccccc2)CC1)C(F)(F)F
  4% | . | 0% | . | . | . | -16% | -11%
> O=C(O)CN1CCCCC1
  2% | -4%[46.1 µM] | 0% | . | . | 13% | 3% | -17%
> N#CCc1ccc(Oc2ccc([N+](=O)[O-])cn2)cc1
  3% | 3%[46.1 µM] | 0% | . | . | -9% | -13% | 4%
> Cc1cc(=O)n2ccsc2n1
  -4% | 0% | -25% | 3% | -2.0% | -10% | -15% | 4%
> Cc1ccc(S(=O)(=O)N2CCCCC2)cc1C(=O)NCCC1=CCCCC1
  . | ? | 2% | . | . | ? | -12% | 10%
> CCOC(=O)c1cnn(-c2ccccc2)c1NC(=O)C(F)(F)C(F)(F)C(F)(F)F
  5% | -6% | 3% | 10% | 1.9% | 10% | -13% | 1%

Some of the entries so far, as labelled records:
> COc1ccccc1NC(=O)C1=C(C)Nc2nc(SCc3ccccc3Cl)nn2C1c1ccccn1 (stereo unspecified)
  NS1 function inh = .	MARV entry inh = 9%[46.1 µM]	SARS PLP yeast = .	Cruzain inh noDet = -7%	Cruzain inh Det = 1.2%	Lassa entry inh = -13%[46.1 µM]	2A StopGo = ?	RE007 growth inh = .
> CC1CCN(CCCNC(=O)C2CC(=O)N(CCc3ccccc3)C2)CC1 (stereo unspecified)
  NS1 function inh = -3%	MARV entry inh = .	SARS PLP yeast = -1%	Cruzain inh noDet = .	Cruzain inh Det = .	Lassa entry inh = .	2A StopGo = -11%	RE007 growth inh = -3%
> O=C(/C=C/N1CCN(Cc2ccccc2)CC1)C(F)(F)F
  NS1 function inh = 4%	MARV entry inh = .	SARS PLP yeast = 0%	Cruzain inh noDet = .	Cruzain inh Det = .	Lassa entry inh = .	2A StopGo = -16%	RE007 growth inh = -11%
> O=C(O)CN1CCCCC1
  NS1 function inh = 2%	MARV entry inh = -4%[46.1 µM]	SARS PLP yeast = 0%	Cruzain inh noDet = .	Cruzain inh Det = .	Lassa entry inh = 13%	2A StopGo = 3%	RE007 growth inh = -17%
